Assay outcomes: PubChem BioAssay, Broad Institute
MLL AF4-AF9 inh: inhibitors of AF4 peptide binding to AF9, primary screen, biochemical, AlphaScreen, biotin-AF4 peptide, FLAG-AF9, single point; Protein AF-9 (Homo sapiens), P42568; inhibition, % at 10 µM; hit rate 0.47% among 350,000; AID 651704, 2012;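 active = every replicate reaching a set inhibition limit, whatever the replicate mean, cut at about 25% in these data; inconclusive = mean inhibition reaches that limit but some replicates miss it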;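 also: 0% = plate neutral control median and 100% = total signal loss; the record names both 10 and 1 µM as test concentration; the first replicate is given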
Target sequence (P42568 whole entry, looked up): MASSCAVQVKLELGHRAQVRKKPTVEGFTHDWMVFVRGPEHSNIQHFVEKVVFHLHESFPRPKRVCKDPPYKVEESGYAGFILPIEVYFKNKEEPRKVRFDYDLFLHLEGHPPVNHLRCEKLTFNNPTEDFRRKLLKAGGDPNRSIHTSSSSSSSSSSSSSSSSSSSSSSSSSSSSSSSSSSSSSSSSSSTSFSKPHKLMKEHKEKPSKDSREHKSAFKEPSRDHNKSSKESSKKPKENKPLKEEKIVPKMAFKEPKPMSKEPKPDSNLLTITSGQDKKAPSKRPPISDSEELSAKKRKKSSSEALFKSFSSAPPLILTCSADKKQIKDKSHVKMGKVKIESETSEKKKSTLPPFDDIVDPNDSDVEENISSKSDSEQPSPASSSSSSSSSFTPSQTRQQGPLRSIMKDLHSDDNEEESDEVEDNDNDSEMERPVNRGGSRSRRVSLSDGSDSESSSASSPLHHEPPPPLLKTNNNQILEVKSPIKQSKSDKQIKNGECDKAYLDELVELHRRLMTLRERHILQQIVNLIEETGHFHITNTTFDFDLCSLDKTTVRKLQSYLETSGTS
Beta apoptosis: inhibitors of cytokine-induced beta cell apoptosis, primary screen, luminescence. protection from apoptosis, % (no concentration beside the values). INS-1E cytokine-induced death, ATP luminescence, 48 h; percent of positive-control rescue, neutral wells zero. hit rate 0.8% among 300,000. AID 435005, 2010;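 active = all replicates at 75% or more, or half of them and the mean; inconclusive = half reach 75% but not the mean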;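 also: 0% = cytokine-treated negative control wells and 100% = positive control rescue; higher means more ATP so stronger rescue from cytokine killing; wells of about 40 µL received 100 nL stock; the first replicate is given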
Ecoli rRNA inh: reduced GFP signal of wild-type E. coli, primary screen, bacterial rRNA inhibitor project, GFP/RFP fluorescence, OD600, single point; E. coli WT GFP vs humanized-ribosome RFP mutants, 24 h; hits give low values; DMSO median 0, no signal -100; hit rate 1.6% among 350,000; AID 720706, 2013; GFP signal change (wild-type ribosome), % (no concentration beside the values);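 active = significant combined selectivity score with lowered wild-type GFP, culture density cut under 30%, mutant RFP and density less affected; inactive = any of these conditions unmet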; also: one replicate is shown; some compounds called inactive have numbers as strong as hits
A1 inh: caspase 3/7 activation in MEF A1-2A-BIM cells, primary screen, A1 inhibitor project, cell-based, luminescence, HTS; Caspase-Glo 3/7 luminescence, 3 h; percent of clofoctol response, vehicle zero; hit rate 0.066% among 330,000; caspase activation, % (test concentration not listed);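 active = over half of replicate activation scores above 10%, or exactly half above 10 with the replicate mean above 10; inconclusive = replicate mean below 10 yet half the replicates above 10; inactive = over half of replicates below 10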;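 also: wells of about 30 µL received 50 nL stock; many hits fall short of the cut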
Ecoli rRNA inh OD600: also measured in Ecoli rRNA inh; calls as there; OD600 change, %; measured here: OD600 growth;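 optical density of the mix in the first replicate; 0 = DMSO median and -100 = no signal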
Ecoli rRNA inh RFP: further read-out of Ecoli rRNA inh, marked with its call; RFP signal change, %; measured here: RFP humanized mutant strains;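 first replicate; 0 = DMSO median and -100 = no signal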
An asterisk follows results filed as active; ? = inconclusive; . = not tested or not shown; & = joins results of further samples. These rows are one share of the data; count on the stated rates, not on these rows.

SMILES | MLL AF4-AF9 inh | Beta apoptosis | Ecoli rRNA inh | Ecoli rRNA inh OD600 | Ecoli rRNA inh RFP | A1 inh
COc1ccc(S(=O)(=O)N(C)C[C@@H]2OCCCC[C@@H](C)Oc3ccc(NS(=O)(=O)c4ccc(Cl)cc4)cc3C(=O)N([C@H](C)CO)C[C@H]2C)cc1 | . | . | 2 | 12 | -4.7 | .
Cc1ccccc1-c1ccc([C@@H]2[C@H](CO)N3CCCCN(S(=O)(=O)Cc4ccccc4)C[C@@H]23)cc1 | . | . | -58 | -80 | -14 | .
CN(C)C(=O)c1cccc(-c2ccc(C3[C@@H]4CN(Cc5nccs5)C[C@H]3N4)cc2)c1 (some centres not stated) | . | . | 1&1 | 12&3 | 0.4&-0.3 | .
CC(=O)N1[C@H](CO)[C@@H](c2ccccc2)[C@H]1CN(C)C(=O)CN1CCOCC1 | . | . | 1 | 0 | -0.8 | .
C[C@H](CO)N1C[C@H](C)[C@@H](CN(C)C(=O)C2CC2)Oc2ncc(-c3cccc(F)c3)cc2C1=O | . | . | -1 | 15 | 0.0 | .
CN1C(=O)c2cc(NC(=O)c3cccc(Cl)c3)ccc2OC[C@@H]2O[C@H](CC(=O)NC3CCCCC3)CC[C@H]21 | . | . | -13 | -37 | 3.3 | .
COCC(=O)N1C[C@@H](C)[C@@H](OC)CN(C)C(=O)c2cc(NC(=O)C3CCC3)ccc2OC[C@@H]1C | . | . | 2 | -1 | -2.2 | .
CN(C)C(=O)c1ccc(-c2ccc3c(c2)[C@@H]2[C@@H](CCN2C(=O)c2ccccn2)[C@@H](CO)N3C)cc1 | . | . | -2 | -7 | -3.1 | .
CCC(=O)N1[C@H](CO)[C@H]2c3ccccc3N(C(=O)c3cccc(OC)c3)C[C@H]21 | . | . | -1 | 3 | -1.2 | .
CN1c2ccc(C3=CCCCC3)cc2[C@@H]2[C@@H](CCN2C(=O)Cc2ccccn2)[C@H]1CO | . | . | 6 | 12 | 3.5 | .
CCC(=O)N1C[C@@H](C)[C@H](OC)CN(C)C(=O)c2cc(NC(=O)c3ccc(OC)cc3)ccc2OC[C@H]1C | . | . | -1 | 2 | 2.3 | .
C[C@H]1CN([C@@H](C)CO)C(=O)Cc2cc(NC(=O)CCCCCC(=O)Nc3ccccc3N)ccc2O[C@H]1CN(C)C(=O)Nc1cccc2ccccc12 | . | . | 3 | 9 | -3.1 | .
C[C@@H]1CN([C@@H](C)CO)C(=O)Cc2cc(NC(=O)Nc3ccc(C(F)(F)F)cc3)ccc2O[C@@H]1CN(C)C(=O)Nc1ccc2c(c1)OCO2 | . | . | 1 | 5 | 2.3 | .
C[C@H]1CN([C@@H](C)CO)C(=O)c2cc(NC(=O)Nc3ccccc3)ccc2O[C@H]1CN(C)C(=O)Nc1ccc2c(c1)OCO2 | . | . | -1 | 1 | -4.0 | .
CCCC(=O)Nc1ccc2c(c1)C(=O)N(C)[C@@H]1CC[C@@H](CC(=O)NCC(F)(F)F)O[C@H]1CO2 | . | . | 0 | 7 | -1.1 | .
CN1C(=O)c2cc(NC(=O)Cc3ccccc3)ccc2OC[C@H]2O[C@@H](CC(=O)NCc3ccc(Cl)cc3)CC[C@H]21 | . | . | -6 | -15 | -0.8 | .
COc1cc2c(c(OC)c1OC)C1(CCCCC1)CC2NS(=O)(=O)C(C)C (configuration not stated) | . | . | 43 | 39 | 1.5 | .
C[C@H]1CN([C@@H](C)CO)C(=O)Cc2cc(NC(=O)CCCCCC(=O)Nc3ccccc3N)ccc2O[C@@H]1CN(C)C(=O)Nc1ccc(C(F)(F)F)cc1 | . | . | 3 | 0 | -1.0 | .
O=c1c(-c2c(O)cc(O)c3c(=O)cc(-c4ccc(O)cc4)oc23)c(-c2ccc(O)cc2)oc2cc(O)cc(O)c12 | 11 | -3 | . | . | . | 0.4
Cc1c(NC(=O)COC(=O)/C=C/c2cccc(Cl)c2)c(=O)n(-c2ccccc2)n1C | -0.5 | -1 | . | . | . | -1.3
CN(Cc1ccccc1F)C(=O)CCNC(=O)c1ccc(C(C)(C)C)cc1 | 1.3 | 5 | . | . | . | 1.3
O=C(COC(=O)c1ccc(S(=O)(=O)N2CCOCC2)cc1)Nc1ccccc1OC(F)F | 0.4 | -2 | . | . | . | 0.9
Cc1cc(C)c(C)c(S(=O)(=O)Nc2ccccc2N2CCOCC2)c1C | -1.2 | 4 | . | . | . | 1.0
O=C(COc1ccc(Cl)cc1Br)NC1CC1 | -2.3 | -6 | . | . | . | 0.9
C#CCN1C(C)=C(C(=O)OC)C(c2cccc([N+](=O)[O-])c2)C(C(=O)OCC)=C1C (configuration not stated) | 4.7 | 0 | . | . | . | 0.1
CCOC(=O)Oc1c(OC)cc(C(=O)O[C@@H]2C[C@@H]3CN4CCc5c([nH]c6cc(OC)ccc56)[C@H]4C[C@@H]3[C@H](C(=O)OC)[C@H]2OC)cc1OC | 6.7 | 6 | . | . | . | -0.8
CC1(c2ccccc2Br)NC(=O)N(CC(=O)N2CCc3ccccc3C2)C1=O (configuration not stated) | -3.2 | -1 | . | . | . | 0.6
COC1(C2=NCCN2)COc2ccccc2O1 (configuration not stated) | -1.0 | -4 | . | . | . | 0.0
Cc1cccc(C(=O)OCC(=O)c2csc(N3CCCCC3)n2)c1[N+](=O)[O-] | 1.5 | 0 | . | . | . | 1.5
COc1ccc(OCC(=O)Nc2ccc3c(c2)CCC3)cc1 | -3.6 | -4 | . | . | . | -1.0

Reformatted: entries from further up.
Every second line gives: MLL AF4-AF9 inh	Beta apoptosis	Ecoli rRNA inh	Ecoli rRNA inh OD600	Ecoli rRNA inh RFP	A1 inh
> O=c1c(-c2c(O)cc(O)c3c(=O)cc(-c4ccc(O)cc4)oc23)c(-c2ccc(O)cc2)oc2cc(O)cc(O)c12
→ 11	-3	.	.	.	0.4
> Cc1c(NC(=O)COC(=O)/C=C/c2cccc(Cl)c2)c(=O)n(-c2ccccc2)n1C
→ -0.5	-1	.	.	.	-1.3
> CN(Cc1ccccc1F)C(=O)CCNC(=O)c1ccc(C(C)(C)C)cc1
→ 1.3	5	.	.	.	1.3
> O=C(COC(=O)c1ccc(S(=O)(=O)N2CCOCC2)cc1)Nc1ccccc1OC(F)F
→ 0.4	-2	.	.	.	0.9
> Cc1cc(C)c(C)c(S(=O)(=O)Nc2ccccc2N2CCOCC2)c1C
→ -1.2	4	.	.	.	1.0
> O=C(COc1ccc(Cl)cc1Br)NC1CC1
→ -2.3	-6	.	.	.	0.9
> C#CCN1C(C)=C(C(=O)OC)C(c2cccc([N+](=O)[O-])c2)C(C(=O)OCC)=C1C (configuration not stated)
→ 4.7	0	.	.	.	0.1
> CCOC(=O)Oc1c(OC)cc(C(=O)O[C@@H]2C[C@@H]3CN4CCc5c([nH]c6cc(OC)ccc56)[C@H]4C[C@@H]3[C@H](C(=O)OC)[C@H]2OC)cc1OC
→ 6.7	6	.	.	.	-0.8
> CC1(c2ccccc2Br)NC(=O)N(CC(=O)N2CCc3ccccc3C2)C1=O (configuration not stated)
→ -3.2	-1	.	.	.	0.6

Next section
SMILES | MLL AF4-AF9 inh | Beta apoptosis | Ecoli rRNA inh | Ecoli rRNA inh OD600 | Ecoli rRNA inh RFP | A1 inh
COc1ccc2nc(SC(C)C(=O)NC3(C#N)CCCCC3)[nH]c2c1 (configuration not stated) | 1.4 | 7 | . | . | . | -0.3
O=C(COc1ccc(Cl)cc1)Nc1ccc(CN2CCOCC2)cc1 | 1.7 | -4 | . | . | . | -0.3
CCCCN1C(=O)C(=O)N(CC(=O)c2ccc3c(c2)CCCC3)C1=O | 1.2 | -5 | . | . | . | 0.2
N#Cc1c(/N=C/c2ccc(-c3ccc(C(=O)O)c(Cl)c3)o2)sc2c1CCCC2 | 2.7 | -4 | . | . | . | -0.5
CCCCCCCCCCCCCCCC(=O)NCCO | -12 | -2 | . | . | . | 1.1
COc1ccc(NC(C)=O)cc1NS(=O)(=O)c1ccc2c(c1)OCCO2 | -0.4 | -2 | . | . | . | 0.7
O=C(COC(=O)Cc1n[nH]c(=O)c2ccccc12)NNC(=O)c1ccc(Cl)cc1 | -1.2 | 2 | . | . | . | -1.2
CC(=O)Nc1ccc(NC(=O)CSc2nnc(C3CC3)n2-c2ccccc2)cc1 | -0.9 | -2 | . | . | . | -0.8
CCN(C(=O)COC(=O)CNC(=O)c1ccc(Cl)cc1Cl)c1c(N)n(Cc2ccccc2)c(=O)[nH]c1=O | -1.6 | -3 | . | . | . | -1.2
CCOc1ncccc1C(=O)Nc1cc2c(cc1Br)OCCO2 | 0.0 | 2 | . | . | . | -0.6
CC(=O)OC/C=C(\C)CCC=C(C)C | -1.6 | -7 | . | . | . | 0.6
O[Si](CCCN1CCCCC1)(c1ccc(F)cc1)C1CCCCC1 (configuration not stated) | 2.9 | 2 | . | . | . | -0.1
COc1ccc(/C=C/C(=O)OCC(=O)NC2CCCCC2C)c(OC)c1 (configuration not stated) | -0.9 | 1 | . | . | . | -0.2
Cc1cccc(C(=O)NCC(=O)N2CCN(c3ccccn3)CC2)c1 | -6.1 | -1 | . | . | . | -0.7
O=C(COC(=O)c1cccc(Cl)c1)NC(=O)NCc1ccccc1 | -3.1 | -6 | . | . | . | -0.6
O=C(/C=C/c1ccco1)N1CCN(S(=O)(=O)c2cccc([N+](=O)[O-])c2)CC1 | 4.1 | 11 | . | . | . | 1.2
Cc1c(C(=O)Nc2ccc3c(c2)OCCO3)oc2ccc(Br)cc12 | -1.2 | 0 | . | . | . | -1.1
CSCCC(NC(=O)c1ccccc1)C(=O)NNC(=O)c1ccccc1 (configuration not stated) | 1.8 | 2 | . | . | . | 0.0
CC(=O)c1c(C)[nH]c(C(=O)C(C)Sc2nnc(NC3CC3)s2)c1C (configuration not stated) | 0.7 | 45 | . | . | . | -0.3
Cc1ccc(N2C(=O)C3C4CCC(O4)C3C2=O)c(OC(F)F)c1 (configuration not stated) | -3.1 | -3 | . | . | . | 1.3
O=C(O)C1=CCCN(CCON=C(c2ccccc2)c2ccccc2)C1 | -2.9 | -1 | . | . | . | 0.1
COc1cc(NC(=O)COC(=O)CNC(=O)C2CCCCC2)cc(OC)c1 | -4.1 | 1 | . | . | . | -0.5
COc1ccc(CCC(=O)OCC(=O)c2ccc[nH]2)cc1OC | -0.6 | -2 | . | . | . | 0.3
O=C(CSc1ncnc2sc3c(c12)CCCC3)NC1CCS(=O)(=O)C1 (configuration not stated) | -1.2 | -6 | . | . | . | -0.4
NC(=O)c1ccc(NC(=O)COC(=O)/C=C/c2ccc(Br)o2)cc1 | -2.6 | -1 | . | . | . | -1.0
CN(CC(=O)Nc1cccc(F)c1)CC(=O)Nc1cc(S(=O)(=O)N2CCOCC2)ccc1Cl | -1.2 | 8 | . | . | . | -1.0
C[C@@H](NC(=O)/C(C#N)=C/c1ccc(O)c(O)c1)c1ccccc1 | -1.1 | 10 | . | . | . | -0.5
CCOC(=O)C1CCCN(C(=O)COc2ccc(C(=O)c3ccc(F)cc3)cc2)C1 (configuration not stated) | -1.1 | -2 | . | . | . | -0.6
CCc1noc(C)c1C(=O)NNC(=O)c1nn(C)c(=O)c2ccccc12 | -0.6 | -5 | . | . | . | 0.0
O=C1NCCN1c1ncc([N+](=O)[O-])s1 | -2.2 | 5 | . | . | . | 1.6
O=C(c1ccco1)N1CCN(C(=O)c2ccc(-c3ccc([N+](=O)[O-])cc3)o2)CC1 | 2.0 | 1 | . | . | . | 0.2
Cc1ccc(S(=O)(=O)N2CCCCC2)cc1NC(=O)C1CC1 | -0.6 | -2 | . | . | . | ?
O=C(NCc1cccnc1)c1ccccc1NS(=O)(=O)c1ccc(Br)cc1 | -0.8 | -7 | . | . | . | -0.2
CC1(C)CC2CC(C)(CN2S(=O)(=O)c2ccccc2[N+](=O)[O-])C1 (configuration not stated) | 7.1 | -5 | . | . | . | -0.7
CN1CCN(C(c2ccccc2)c2ccc(Cl)cc2)CC1 (configuration not stated) | 5.4 | 6 | . | . | . | -0.3
COCC(C)n1c(C)cc(C(=O)COC(=O)c2cccn2C)c1C (configuration not stated) | 4.9 | -3 | . | . | . | -8.4
CN=C(N)NCCC[C@H](N)C(=O)O | -1.4 | 1 | . | . | . | 0.5
COc1cccc(N2CCN(C(=O)CCNS(=O)(=O)c3ccc(F)c(F)c3)CC2)c1 | 1.6 | 1 | . | . | . | 0.1
